Screens (PubChem)
Bfl-1 A1 inh – inhibitors of the anti-apoptotic protein A1, read as caspase activation; MEF A1-2A-BIM cells, Caspase-Glo 3/7 luminescence, 3 h; percent of clofoctol response, vehicle zero; caspase activation, % (concentration not given with the values); actives 0.066% (n = 330,000); AID 2462;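 active = over half of replicate activation scores above 10%, or exactly half above 10 with the replicate mean above 10; inconclusive = replicate mean below 10 yet half the replicates above 10; inactive = over half of replicates below 10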;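 also: wells of about 30 µL received 50 nL stock; many hits fall short of the cut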
E coli growth – blocks Escherichia coli growth. OD600, 23 h; active compounds read low. OD600 absorbance (test concentration not listed). actives 0.21% (n = 330,000);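 active = OD600 absorbance below the run mean of sample wells minus 3.6 SD, in any replicate, cut at about 0.56 in these data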;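 also: stock transfer was 300 nL into about 60 µL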
Vif TR-FRET – inhibitors of Vif binding to APOBEC3G peptide, primary screen, biochemical, TR-FRET, GST-Vif 1-94, biotin-A3G peptide, dose response retest (AID 1117319) | TR-FRET GST-Vif / biotin-A3G peptide binding; higher % means a stronger effect; test concentration not given here; strong numbers were not always called active | inhibition, %, or IC50 in µM where a hit was titrated | actives 0.57% (n = 260,000);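 active = above the screen mean plus three standard deviations and confirmed in dose response; inconclusive = results disagree or hit not tested in dose response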;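 also: Vif residues 1-94 fused to GST binding biotinylated APOBEC3G peptide 110-148; 0% = full assay without inhibitor and 100% = GST in place of GST-Vif; retest series ran down from 100 µM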
HNF4A DNA FP – change in binding of human HNF4 alpha to DNA; HNF4a-FITC DNA binding, fluorescence polarization, 1 h; actives 0.3% (n = 360,000); activity change, % at 10 µM; in the data active = activity change above about 30%, passing the limit was not always enough;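 also: controls were the assay level and a saturating level of protein; the project sought stronger binding though the title names inhibitors; some compounds called inactive have numbers as strong as hits; positive values seem to mean higher polarization but the record does not say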
UCH37 inh – blocks the human deubiquitinase UCH37. Q9Y5K5. purified proteasome/UCH37, Ub-AMC cleavage fluorescence. inhibition, % (test concentration not listed). actives 0.33% (n = 330,000). AID 588478;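 active = mean of two replicates above 20%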;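 also: 0% = compound-free wells with enzyme and 100% = wells lacking proteasome; stock transfer was 100 nL into about 20 µL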
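Test system – human UCH37 enzyme supplied as purified proteasome complex · Incubation – 30 min preincubation with enzyme, 25 min cleavage at room temperature · Detection – AMC fluorescence from Ub-AMC cleavage, excitation 355 nm, emission 460 nm · Benchmarks – no-proteasome wells (full inhibition) and compound-free wells (no inhibition)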
B2AR ag – agonists of human beta-2 adrenergic receptor inducing internalization; Am2.2-beta2AR cells, FAP receptor internalization, flow cytometry; reference of the scale not given here; response, % (concentration not given with the values); actives 0.43% (n = 340,000); AID 504454;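 active = response above a set limit, near 3 SD of response in nonfluorescent compounds, cut at about 42% in these data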;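 also: stock transfer was 100 nL into about 11 µL; a reference agonist was the positive control; negative values mostly stem from fluorescent compounds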
LANA-H2A inh – blocks KSHV LANA binding to histone H2A/H2B | Q9QR71 | cell-free LANA-H2A/H2B peptide, fluorescence polarization | inhibition, % (test concentration not listed) | actives 0.6% (n = 320,000); in the data active = inhibition mostly above about 10%, no sharp cut-off; inactive = mostly below about 6.7%;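 also: stock transfer was 7.5 nL into about 10 µL; 0% = median of vehicle wells and 100% = median of positive control wells; one replicate is shown; the record names a cut of 25% in any replicate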
Target sequence (Q9QR71 whole entry, looked up): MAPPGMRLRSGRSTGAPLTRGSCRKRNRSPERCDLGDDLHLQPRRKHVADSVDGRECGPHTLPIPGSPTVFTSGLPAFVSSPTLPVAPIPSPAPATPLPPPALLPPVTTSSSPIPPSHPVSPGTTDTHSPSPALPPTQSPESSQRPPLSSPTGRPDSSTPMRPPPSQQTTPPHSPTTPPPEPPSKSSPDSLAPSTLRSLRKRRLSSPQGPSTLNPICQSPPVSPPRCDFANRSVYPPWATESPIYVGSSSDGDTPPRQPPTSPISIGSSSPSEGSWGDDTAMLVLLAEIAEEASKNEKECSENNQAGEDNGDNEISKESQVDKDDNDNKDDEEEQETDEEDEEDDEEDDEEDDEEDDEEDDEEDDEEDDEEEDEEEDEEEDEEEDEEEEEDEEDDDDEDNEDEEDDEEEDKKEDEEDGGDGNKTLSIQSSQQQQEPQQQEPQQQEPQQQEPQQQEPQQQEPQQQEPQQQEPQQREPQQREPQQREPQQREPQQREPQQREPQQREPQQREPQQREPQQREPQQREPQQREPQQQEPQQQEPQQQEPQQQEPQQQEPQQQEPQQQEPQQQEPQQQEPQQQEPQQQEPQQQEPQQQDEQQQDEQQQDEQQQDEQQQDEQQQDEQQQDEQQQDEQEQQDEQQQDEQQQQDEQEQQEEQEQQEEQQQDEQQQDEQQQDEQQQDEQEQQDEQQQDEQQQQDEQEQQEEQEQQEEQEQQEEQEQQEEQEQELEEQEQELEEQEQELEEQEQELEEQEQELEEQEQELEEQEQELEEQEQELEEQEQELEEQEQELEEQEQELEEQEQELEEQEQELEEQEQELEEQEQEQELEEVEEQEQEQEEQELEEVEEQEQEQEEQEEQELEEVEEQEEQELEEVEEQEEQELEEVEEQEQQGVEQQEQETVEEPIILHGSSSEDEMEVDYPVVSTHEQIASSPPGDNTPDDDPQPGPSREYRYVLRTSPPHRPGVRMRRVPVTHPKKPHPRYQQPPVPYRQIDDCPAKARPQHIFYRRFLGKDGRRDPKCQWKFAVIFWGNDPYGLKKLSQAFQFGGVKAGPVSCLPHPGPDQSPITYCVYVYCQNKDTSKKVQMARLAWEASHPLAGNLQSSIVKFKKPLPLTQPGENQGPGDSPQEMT
* hit, by the source's call; ? = inconclusive; nt = no result given.

SMILES	Bfl-1 A1 inh	E coli growth	Vif TR-FRET	HNF4A DNA FP	UCH37 inh	B2AR ag	LANA-H2A inh
COc1ccc(Nc2nc(-c3ccccc3)nc3ccccc23)cc1	-0.1	0.7	2%	2.6	-64	-4	-4.2
CCCOC(=O)c1sc2nc3c(cc2c1N)C(=O)CCC3	-0.6	0.79	2%	0.9	-4.2	-4	2.8
COc1ccc(CC(=O)Nc2ccccc2C(C)=O)cc1S(=O)(=O)N1CCOCC1	-0.4	0.65	12%	-4.6	-8.0	-24	nt
C=CCn1c(Cc2ccc(OC)cc2)nnc1SCC(N)=O	-0.3	0.66	-12%	-5.1	0.1	4	-1.7
CC(=O)NCCc1ccc(C(=O)Cn2cnc3ccccc3c2=O)cc1	0.4	0.71	nt	-1.1	3.5	-8	-0.4
NC(=O)c1ccc(NC(=O)c2cnc3ccccc3n2)cc1	-1.9	0.59	nt	-0.2	4.2	-2	-2.3
CC1CC(C)(C)NC(=S)N1CCCC(=O)NCc1ccccc1 (stereo not given)	0.9	0.71	-2%	2.9	4.1	6	-3.9
Nc1ncnc2c1ncn2[C@@H]1O[C@H](CNC(=O)[C@@H]2C[C@H](F)CN2)[C@@H](O)[C@H]1O	nt	0.68	-1%	2.5	0.2	2	nt
O=c1cc(CN2CCN(S(=O)(=O)c3cccc(Cl)c3)CC2)c2ccc(O)cc2o1	-0.8	0.66	nt	-6.8	-315	16	-7.4
Cc1ccc(CNC(=O)CN2C(C)CCCC2C)cc1 (stereo not given)	2.7	0.64	0%	-4.3	-1.2	5	-2.2
CC(=O)Oc1ccc(C(=O)Nc2ccc3c(c2)OCCO3)cc1	-8.4	0.63	-8%	-0.4	-0.9	7	4.0
CCOc1ccc(C2C3=C(CC(C)(C)CC3=O)N(CC(=O)O)C3=C2C(=O)CC(C)(C)C3)cc1OCC	-0.1	0.68	nt	1.0	5.1	-5	-0.2
Cc1cc(C)c(S(=O)(=O)NC2CCN(Cc3ccccc3)CC2)c(C)c1	0.3	0.65	nt	-1.0	2.6	2	3.4
NC1=NC(=O)C(Cc2ccc(OC(F)(F)F)cc2)S1 (stereo not given)	0.4	0.68	3%	-0.7	2.8	-6	-8.5
O=C(CNS(=O)(=O)c1ccc(Br)s1)NCC1COc2ccccc2O1 (stereo not given)	0.1	0.73	-1%	1.5	3.9	10	2.6
CCOC(=O)C1CCCN(C(=O)CSc2ccc(Br)cc2)C1 (stereo not given)	0.5	0.67	5%	0.6	3.8	4	2.7
COc1cccc(-c2ccc(NC(=O)C3CCCN(Cc4ccco4)C3)cc2)c1 (stereo not given)	0.4	0.68	8%	6.5	-1.4	5	3.1
O=[N+]([O-])c1ccc(-c2ccc(/C=N/O)o2)cc1	-5.1	nt	-2%	-1.1	nt	9	1.0
COc1ccc(-c2cc(C)no2)cc1S(=O)(=O)N1CCN(c2cccc(C)c2)C(C)C1 (stereo not given)	-0.2	0.73	2%	1.2	4.2	-14	-0.2
O=C(CCS(=O)(=O)c1ccc(Br)s1)NC1CCCCCC1	0.3	0.7	-1%	0.4	1.0	-7	-5.0
COc1ccc(CCNC(=O)c2ccc3c(c2)NC(=O)CS3)cc1OC	0.4	0.71	nt	-3.1	2.5	11	-1.6
CCN1C[C@@H]2[C@@H]3C(=O)N(C)C(=O)[C@@H]3[C@](Cc3ccccc3)(C1=O)N2C(=O)c1ccc(C(C)(C)C)cc1	nt	nt	nt	3.2	2.6	-15	nt
CCOCCCN(C(=O)c1ccco1)C(C(=O)NC1CCCC1)c1ccc(OC)cc1 (stereo not given)	nt	0.67	nt	4.6	1.6	0	nt
COCC(=O)N1CCC(Oc2ccc(C(=O)NCCc3ccncc3)cc2)CC1	-0.1	0.73	11%	0.1	4.4	-3	-8.9
S=C(NCc1ccc(Cl)cc1)NCc1ccco1	0.3	0.66	nt	5.7	-1.0	11	-4.6
Continuation:
SMILES	Bfl-1 A1 inh	E coli growth	Vif TR-FRET	HNF4A DNA FP	UCH37 inh	B2AR ag	LANA-H2A inh
CC(C)(C)CN1CCNC(=O)C1CC(=O)NCc1cccc(-n2cccn2)c1 (stereo not given)	-0.3	0.68	-1%	-1.8	-2.2	-6	2.9
CCCN1C(=O)N(C)C(N(O)C(=O)NC)C1(C)C (stereo not given)	0.4	0.75	-3%	-2.5	1.8	-2	2.0
Brc1ccc(CN2CCN(Cc3c[nH]c4ccccc34)CC2)cc1	3.1	0.66	nt	-3.3	6.0	14	8.0
C/C=C(\CS(=O)(=O)c1ccccc1)S(=O)(=O)c1ccccc1	1.0	0.68	24%	-3.0	5.8	-2	0.1
Cc1ccc(-c2noc(CCCC(=O)NC3CCCC3)n2)cc1	0.5	0.69	nt	0.7	-0.5	-4	-5.9
Cc1cc(Cl)ccc1OC(C)C(=O)Nc1ccc(S(=O)(=O)Nc2cnc3ccccc3n2)cc1 (stereo not given)	0.9	0.8	24%	0.9	-7.0	20	0.2
COc1ccc(N2CCN(/C(=N\S(=O)(=O)c3ccc(C)cc3)Nc3nc(C)cc(C)n3)CC2)cc1	-0.4	0.69	2%	1.2	-0.6	-6	4.4
COc1ccc(N2CC(C(=O)Nc3nnc(SCC(=O)NC4CCCC4)s3)CC2=O)cc1 (stereo not given)	1.2	0.71	-12%	1.3	5.9	4	9.8
CC(=O)NC1(C(F)(F)F)NC(=O)N(CC(C)C)C1=O (stereo not given)	0.8	0.71	-6%	-3.8	-1.0	3	2.4
Nc1ccccc1-c1nnc(SCC(=O)Nc2ccccc2OC(F)F)[nH]c1=O	1.6	0.68	-12%	0.3	3.9	8	1.4
Cc1ccc(S(=O)(=O)NCCC(=O)NCc2ccccn2)cc1	0.2	0.62	-6%	-4.7	0.5	-8	-2.8
Cc1cc(SCC(=O)NCC(c2cccs2)N2CCOCC2)c(C)cc1Br (stereo not given)	2.0	0.72	-2%	-0.4	5.0	5	2.5
CCC(=O)c1ccc(OCC(=O)OCC(=O)Nc2cccc(S(=O)(=O)N3CCOCC3)c2)cc1	nt	0.67	nt	-4.4	3.3	-5	nt
CCOC(=O)CSc1nnc(Cn2nnc3ccccc32)n1-c1ccc(F)cc1	1.0	0.66	-5%	-4.6	4.9	-13	-0.7
CCOc1ncccc1C(=O)OCC(=O)Nc1ccc(C)c(S(=O)(=O)N2CCOCC2)c1	-0.5	0.66	?	2.9	3.5	2	3.3
COc1cc(NC(=S)N2CCCC(CO)C2)cc(OC)c1 (stereo not given)	0.8	0.69	nt	-1.0	-1.0	7	1.2
CC(C(=O)Nc1ccccc1)N(C)CCOc1ccccc1 (stereo not given)	-0.1	0.69	3%	-1.1	5.6	-14	2.1
Cc1ccc(/C=C(\C#N)C(=O)Nc2ccccn2)o1	-3.5	0.69	-2%	1.1	11	-10	1.1
N=c1ccn(Cc2cccc(F)c2)cc1	0.5	0.68	nt	1.6	4.7	5	0.3
S=C(NCC1CCCO1)N1CCN(c2nc(-c3ccccc3)cs2)CC1 (stereo not given)	0.0	0.68	-11%	2.3	0.6	-3	3.7
Cc1ccc(NC(=O)c2ccc(CSc3nnc(-c4ccncc4)n3C)cc2)c(C)c1	0.9	0.77	7%	1.4	-1.6	1	0.9
O=C(NNC(=O)c1sccc1-n1cccc1)c1ccccc1	-0.4	0.74	2%	1.3	0.9	-9	3.2
Cc1cccc(NC(=S)N(CCCN2CCOCC2)Cc2ccccn2)c1	0.2	0.69	nt	3.0	1.9	-3	-3.0
CCc1c(C)sc(NC(=O)c2cc(-c3ccc(O)cc3)on2)c1C#N	-0.2	0.8	-7%	1.2	-36	6	2.9
Cn1c(CC(=O)Nc2ccccc2F)nnc1SCC(=O)NC1CCCCC1	0.7	0.7	nt	-0.5	2.0	1	0.2

Five entries drawn at random from those above, as already listed:
SMILES	Bfl-1 A1 inh	E coli growth	Vif TR-FRET	HNF4A DNA FP	UCH37 inh	B2AR ag	LANA-H2A inh
C/C=C(\CS(=O)(=O)c1ccccc1)S(=O)(=O)c1ccccc1	1.0	0.68	24%	-3.0	5.8	-2	0.1
S=C(NCC1CCCO1)N1CCN(c2nc(-c3ccccc3)cs2)CC1 (stereo not given)	0.0	0.68	-11%	2.3	0.6	-3	3.7
Cc1ccc(-c2noc(CCCC(=O)NC3CCCC3)n2)cc1	0.5	0.69	nt	0.7	-0.5	-4	-5.9
CC(=O)NCCc1ccc(C(=O)Cn2cnc3ccccc3c2=O)cc1	0.4	0.71	nt	-1.1	3.5	-8	-0.4
NC(=O)c1ccc(NC(=O)c2cnc3ccccc3n2)cc1	-1.9	0.59	nt	-0.2	4.2	-2	-2.3

Next results follow.
SMILES	Bfl-1 A1 inh	E coli growth	Vif TR-FRET	HNF4A DNA FP	UCH37 inh	B2AR ag	LANA-H2A inh
CCn1cc([N+](=O)[O-])c(C(=O)Nc2ccc(Br)cn2)n1	-0.3	0.65	?	-1.5	3.3	-17	-3.4
CC(=O)c1ccc(NC(=O)C2CCCN(c3ncnc4c3nc3n4CCCCC3)C2)cc1 (stereo not given)	1.3	0.68	nt	1.4	-0.1	-3	5.6
N#Cc1nc(Cc2ccccc2)oc1N1CCCC1	0.3	0.69	-2%	0.4	1.8	-15	-4.6
CC(=O)c1ccc2c(c1)C1C=CCC1C(C(=O)O)N2 (stereo not given)	nt	0.76	0.6µM*	-69	12	6	nt
COc1ccc(C2N(c3cc(Cl)ccc3OC)C(=O)C3CCCN32)cc1OC (stereo not given)	-0.2	0.69	10%	3.0	5.0	-3	-0.1
Cc1ccc(OCC(O)CN2CCOCC2)c(C)c1 (stereo not given)	0.4	0.71	nt	-2.9	-2.0	-5	1.9
Cc1occc1C(=O)Nc1cccc(C(F)(F)F)c1	-1.9	0.68	-2%	1.5	4.5	14	6.4
Cc1cc(C)c2cc(CN(CCO)C(=O)Nc3ccc(F)cc3)c(=O)[nH]c2c1	0.4	0.73	-6%	-0.7	-0.5	-8	2.0
COC(=O)COc1ccc(-n2cnnn2)cc1	-0.3	0.69	nt	1.1	4.6	7	5.4
O=C(Nc1cccnc1Cl)c1cccc(S(=O)(=O)N2CCOCC2)c1	nt	0.68	nt	0.9	0.0	2	nt
CCN(C[C@H]1N[C@@](C)(C(=O)OC)[C@H]2C(=O)N(Cc3ccccc3)C(=O)[C@@H]12)C(=O)c1ccccc1	nt	0.67	-2%	1.6	1.1	6	nt
COC(=O)c1[nH]c(C)c(/C(O)=C2\C(=O)C(=O)N(CCN(C)C)C2c2ccccc2OC)c1C (stereo not given)	-0.2	nt	-3%	2.4	2.8	0	-2.5
COc1ccc(C(=O)N2CCN(C(C)=O)CC2)cc1S(=O)(=O)NCc1ccc(Cl)cc1	2.3	0.74	-3%	-2.2	1.0	4	-0.2
CCc1ccccc1NC(=O)C1CCCN(S(=O)(=O)c2c(C)noc2C)C1 (stereo not given)	0.1	0.75	4%	-0.8	8.0	7	0.7
COc1ccc(CNC(=O)C2CCC(=O)N2C(C)C)c(OC)c1 (stereo not given)	1.0	0.7	-12%	-3.3	-1.4	-5	5.5
O=C(NCc1ccco1)/C(=C/c1ccc(Cl)cc1)NC(=O)c1ccco1	0.3	0.7	nt	-1.0	-0.7	8	-0.3
NC(=O)Nc1cc(Cl)ccc1Cl	0.6	0.68	4%	5.2	2.8	-2	2.7
Cc1ccc(S(=O)(=O)N/N=C/c2ccc(C(=O)O)cc2)cc1	-1.0	nt	-3%	1.2	nt	-1	5.2
CC(Nc1nc(-c2ccc(F)cc2)cs1)c1nc2cc(Cl)c(Cl)cc2n1CCCO (stereo not given)	-0.2	0.69	nt	2.8	2.9	-3	-2.8
CN1C(=O)CSc2ccc(NC(=O)NCc3cccnc3)cc21	0.2	0.71	65%	-0.6	2.4	-1	1.0
Cc1cc(=O)oc2cc(OCC(=O)N3CCN(C(=O)C4COc5ccccc5O4)CC3)c(Cl)cc12 (stereo not given)	2.6	0.7	nt	1.6	-30	6	-2.8
Cc1ccc(CSCCNC(=O)c2cccc([N+](=O)[O-])c2)cc1	0.1	0.67	-6%	1.9	2.8	-7	3.3
